Screening data deposited in PubChem BioAssay by ICCB-Longwood Screening Facility, Harvard Medical School.
AID504770: growth inhibitors of E. coli YBA685 in a screen for V. cholerae RctB (chromosome II replication) inhibitors; E. coli YBA685 rctB-dependent plasmid, OD600 growth, 3 h; active compounds read low; hit rate 0.27% among 130,000; z-score (no concentration beside the values);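 active = z-score under -2 on both plates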;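 note: wells of about 30 µL received 100 nL stock; score is relative to mean and SD of the test wells; the first replicate is given; strong numbers were not always called active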
Ba CapD inh: inhibitors of Bacillus anthracis CapD enzyme. purified CapD enzyme, fluorescence intensity read-out; active compounds read low; some hits fall short of the stated cut. z-score (no concentration beside the values). hit rate 0.23% among 140,000. AID 492967;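 active = z-score under -4 in either of two replicates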;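 note: stock transfer was 100 nL into about 40 µL; score is relative to mean and spread of the plate; one replicate is shown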
The depositor's hits bear a star; nt = no result given.

SMILES	AID504770	Ba CapD inh
Cc1ccccc1C1C(C#N)=C(N)NC(S)=C1C#N (centres undefined)	-0.3	nt
COc1ccc2c(c1)c1ncn(C)c(=O)c1n2Cc1ccccc1	0.6	17
CCOC(=O)C1CCCN(C(=O)Cn2nc(C)n3nc(-c4ccc(OC)cc4)cc3c2=O)C1 (centres undefined)	-0.5	1
CCOC(=O)N1CCN(C(=S)Nc2ccc(OC(F)F)cc2)CC1	0.35	nt
O=S(=O)(NCCc1c[nH]c2ccccc12)c1cccc2nsnc12	0.65	-0.09
CCOC(=O)C(NC(=O)c1ccccc1)(Nc1sc2c(c1C#N)CCC(C)C2)C(F)(F)F (centres undefined)	nt	-0.93
Clc1cc(Cl)cc(Oc2nc(-c3ccccc3)ns2)c1	-0.35	0.36
Cc1noc(C)c1COC(=O)c1ccc2[nH]c3c(c2c1)CCCC3	0.4	nt
O=C(NCN1CCN(CNC(=O)c2ccccc2)CC1)c1ccccc1	-0.75	0.085
O=c1oc2ccccc2c(Cl)c1Cc1ccccc1	0.25	0.45
Cc1c(Br)c([N+](=O)[O-])nn1CC(=O)Nc1sc2c(c1C(=O)OC(C)C)CCC(C)C2 (centres undefined)	nt	0.055
COC(=O)c1c(C)oc2ccc(N(C(=O)c3cccc([N+](=O)[O-])c3)S(=O)(=O)c3ccccc3)cc12	nt	-0.55
COc1ccc(-c2nn(CN3CCC(C(N)=O)CC3)c(=S)n2-c2ccccc2)cc1OC	1.9	1
COc1ccc(S(=O)(=O)Nc2cccc3c(C)c(C)[nH]c23)cc1	nt	-0.52
COc1cc(Cl)c(C)cc1NCC(=O)N1CCOCC1	-0.2	nt
O=C(OCc1ccc(C(F)(F)F)cc1F)N1CCC(O)(c2cccc(C(F)(F)F)c2)CC1	nt	-1.5
Oc1c(CN2CCOCC2)ccc(CN2CCOCC2)c1O	0.5	-0.035
CC(C(=O)NCc1ccccc1)N1CCc2ccccc2C1 (centres undefined)	-0.4	nt
O=C(O)c1ccccc1C(=O)OCc1ccccc1	-0.85	-0.57
COc1ccc(N2C(=O)CC(Cc3ccccc3)C2=O)cc1 (centres undefined)	0.15	-0.21
NC(=O)NC(=O)CSc1n[nH]c(-c2cccs2)n1	-0.8	nt
O=C1c2ccccc2C(=O)N1CCCn1ccnc1	-1.4	-0.43
S=C(NNc1ccccc1)Nc1ccccc1Cl	nt	0.1
CC(=O)Oc1ccc2cc(-c3ccc4c(c3)OCCO4)c(=O)oc2c1	-0.65	15
CCn1nc(C)cc1C(=O)Sc1ccc(C)cc1	-0.75	-0.14

(list continues)
SMILES	AID504770	Ba CapD inh
O=C1c2ccccc2-c2onc3c(Cl)cc(Sc4ccccc4)c1c23	nt	0.4
CCOC(=O)CSc1nc2sc3c(c2c(=O)n1CCc1ccccc1)CC(C)(C)OC3	nt	0.11
CCOC(=O)c1cc2cccc(NS(=O)(=O)c3ccc(C(C)(C)C)cc3)c2[nH]1	nt	-0.17
NNC(=O)CCCSc1nc2ccccc2s1	-0.6	3.5
CCc1cc2c(cc1C(=O)CSc1ncccc1C(=O)O)C(C)(C)CCC2(C)C	nt	-0.65
COc1cc(-c2cc(-c3ccccc3)nc3sc(C(=O)O)c(N)c23)cc(OC)c1OC	nt	-1.5
CS/C(Nc1ccccc1)=C(/C(=O)/C=C/c1ccccc1)c1ccccc1	nt	-0.82
O=S(=O)(c1ccccc1)N(Cc1ccccn1)Cc1ccccn1	-0.4	0.45
Cc1sc(/N=C/c2ccc(O)cc2)c(C#N)c1C	-1	0.41
O=c1cc(O)n(Cc2ccco2)c(=S)[nH]1	1.1	0.28
CSc1ccc(C2N=C(c3ccccc3)NO2)cc1 (centres undefined)	-0.75	nt
CNCc1ccc(C)cc1C	-0.6	nt
c1ccc2nc3c(nc2c1)oc1ccccc13	0.15	nt
O=C(O)Cc1cc2c(cc1Br)OCCO2	-1.7	nt
COc1cccc(C2C(C#N)=C(N)Oc3n[nH]c(-c4ccc(Br)cc4)c32)c1OC (centres undefined)	nt	0.73
O=C(NCCCSc1ccccn1)Nc1nccs1	-0.85	nt
CC(C)(C)C(=O)OC/C(N)=N/OC(=O)c1cccs1	nt	0.59
CCc1ccc2c(CC(=O)N3CCN(S(=O)(=O)c4ccc5c(c4)OCCO5)CC3)coc2c1	-0.1	nt
CC(C)NC(=O)c1cccc2sc(N3CCCc4ccccc43)nc12	0.05	-0.16
CCc1c(O)c(Cc2ccccc2)c(=O)n(-c2nccs2)c1-c1ccccc1	-0.65	0.43
Clc1ccc2c(Sc3nncn3-c3ccccc3)ccnc2c1	0.2	nt
O=C(O)c1ccc2c(c1)OCCCO2	-0.15	nt
O=C(CN1CCN(c2ccccc2)CC1)NCc1ccccc1	0.8	0.44
Cc1ccc(NC(=O)c2sc3ncn(CC(=O)N4CCN(c5ccccn5)CC4)c(=O)c3c2C)cc1F	nt	0.22
CN1C(=O)c2ccccc2C(C(=O)N2CCCCC2)C1c1cccs1 (centres undefined)	1.1	0.34

Full records from above:
Entry for `O=c1oc2ccccc2c(Cl)c1Cc1ccccc1` → AID504770: 0.25; Ba CapD inh: 0.45
Entry for `CN1C(=O)c2ccccc2C(C(=O)N2CCCCC2)C1c1cccs1` (centres undefined) → AID504770: 1.1; Ba CapD inh: 0.34

The main list resumes, starting 7 compounds before the break.
SMILES	AID504770	Ba CapD inh
CC(C)NC(=O)c1cccc2sc(N3CCCc4ccccc43)nc12	0.05	-0.16
CCc1c(O)c(Cc2ccccc2)c(=O)n(-c2nccs2)c1-c1ccccc1	-0.65	0.43
Clc1ccc2c(Sc3nncn3-c3ccccc3)ccnc2c1	0.2	nt
O=C(O)c1ccc2c(c1)OCCCO2	-0.15	nt
O=C(CN1CCN(c2ccccc2)CC1)NCc1ccccc1	0.8	0.44
Cc1ccc(NC(=O)c2sc3ncn(CC(=O)N4CCN(c5ccccn5)CC4)c(=O)c3c2C)cc1F	nt	0.22
CN1C(=O)c2ccccc2C(C(=O)N2CCCCC2)C1c1cccs1 (centres undefined)	1.1	0.34
Cn1c(=O)c2c(nc(NC3CCCCC3)n2Cc2ccccc2F)n(C)c1=O	-1.4	0.085
CC(C)(CO)NC(=O)c1ccc(C(C)(C)C)cc1	-0.5	-0.14
Nc1cc(-c2ccc(Cl)cc2)nc(N)n1	nt	3.1
O=C(c1ccccc1)C1CN(Cc2ccccc2)CCC1(O)c1ccccc1 (centres undefined)	-0.2	0.015
CCCNC(=O)CN1Cc2ccccc2C1=O	-0.3	-1.1
COC(=O)c1sc(N2CCCC2)c(C#N)c1-c1cccs1	-0.3	-0.79
O=C(NCCCc1ccccc1)c1ccc(CSc2nc3ccncc3[nH]2)cc1	0.3	0.49
COc1ccc(C(=O)N/N=C/c2cccc(Cl)c2Cl)cc1	nt	-0.095
CCc1ccc(C2(c3ccc(CC)cc3)SC3(SC(C(C)=O)=NN3c3ccc(Cl)cc3)c3ccccc32)cc1 (centres undefined)	nt	-0.45
Cc1ccc(N(C(=O)c2ccc3c(c2)OCO3)C2C=CS(=O)(=O)C2)cc1 (centres undefined)	1.8	nt
CCn1c(CSc2nc3ccc(C)cc3[nH]2)nc2cc(S(=O)(=O)N(C)C)ccc21	0.55	nt
Cc1cccc(-n2nc3c(c2NC(=O)COc2ccc(Cl)cc2Cl)CS(=O)C3)c1C (centres undefined)	-0.2	-0.71
CCCN1CCN(C(=O)c2sc3ncn(C)c(=O)c3c2C)CC1	nt	0.34
Cc1cc(=O)oc2c3c(ccc12)OCC3=O	0.6	nt
C=CCN(CC=C)S(=O)(=O)c1nc2nc(C)cc(C)n2n1	0.95	-0.34
O=C(O)Cc1ccccc1C(=O)N1CCN(c2c(Cl)cncc2Cl)CC1	nt	-0.5
COC(=O)C1=C2CC=CC2C(C(=O)OC)C1=O (centres undefined)	2.3	0.2
Cc1nc2ccccc2c(=O)n1-c1ccccc1	-0.75	-0.34
COc1ccc(C2CC(=O)C3=C(C2)Nc2ccccc2NC3c2ccc(SC)cc2)cc1OC (centres undefined)	nt	-1.4
COc1ccc(C)cc1C(=O)C1CC(C(=O)O)C(C)(C)C1C (centres undefined)	1	2.5
CCn1c(SCC(=O)N2CCc3ccccc3C2)nnc1C(C)NC(=O)c1ccccc1 (centres undefined)	0.4	nt
COc1ccc(S(=O)(=O)CC(C)(O)C(=O)Nc2ccc(Cl)cc2)cc1 (centres undefined)	nt	-0.62
CC(C)S(=O)(=O)c1cscc1NC(=O)c1ccc(-c2cc(C(F)(F)F)nn2C)s1	-0.25	2.4
CCOc1ccc(NCCC(=O)c2ccc3c(c2)OCO3)cc1	0.5	0.06
Cc1ccc(NC(=O)c2ccco2)cc1NC(=O)CSc1ncnc2sc3c(c12)CCC3	-0.45	nt

Additional records.
SMILES	AID504770	Ba CapD inh
O=C(c1cccc(S(=O)(=O)N2CCCC2)c1)N1CCCc2ccccc21	0.35	0.2
N/C(=N\c1nc2c(c(=O)[nH]1)CCC2)Nc1ccccc1C(F)(F)F	0.15	-0.59
CCSc1nnc2c(n1)OC(c1ccccn1)Nc1ccccc1-2 (centres undefined)	nt	-0.27
O=C(OCc1ccccc1)c1ccccc1	1.9	-0.31
O=C(NC(Cc1ccccc1)C(=O)O)c1ccco1 (centres undefined)	1.3	-0.69
N#CCSc1ccccc1NC(=O)CN1CC=C(c2ccccc2)CC1	-0.05	nt
CCCCN(C)C(=O)Cc1c(C(=O)O)[nH]c2ccc(Cl)cc12	-0.7	1.9
Cc1ccc2c(c1)/C(=C\c1ccc(Br)cc1)c1cc3ccccc3nc1-2	nt	-0.31
Cc1cc(N2CCN(S(=O)(=O)c3ccccc3)CC2)nc2c(C)cccc12	nt	2.6
CCSC1=NC2(CCCCC2)Nc2ccccc21	0.75	1.9
CCCCNC(=O)CSc1nc(NCCc2ccccc2)c2ccccc2n1	nt	0.83
CCOc1ccc2[nH]c(=O)c(CN(CCOC)C(=O)NC3CCCCC3)cc2c1	-0.45	nt
CCOC(=O)c1c(C)n(Cc2ccc(OC)c(OC)c2)c2c1cc(O)c1ccccc12	nt	1.6
CCOc1ccc(N(C)Cc2cc(=O)oc3ccc(OC)cc23)cc1	-0.45	-0.73
COc1cc(S(=O)(=O)N2CCCCCCC2)ccc1-n1cnnn1	-0.05	1.6
CN(C)c1ccc(C2C=C(c3ccccc3)Nc3ncnn32)cc1 (centres undefined)	1.1	0.24
COc1ccc(-c2c(-c3ccc(O)cc3O)n[nH]c2C)cc1OC	0.45	0.51
COc1ccc(CCNC2CCCCC2C)cc1OC (centres undefined)	1.6	-0.71
COC(=O)c1sccc1Oc1ccc(C(F)(F)F)cc1N1C(=O)C=CC1=O	0.85	-0.17
COc1c(O)cnn(C(C)(C)C)c1=O	-0.55	0.025
Ic1ccc(NC2=NC3(CCCCC3)Cc3ccccc32)cc1	nt	-0.27
O=C(OCc1cc(Cl)ccc1OC(F)F)c1ccco1	-0.35	nt
O=C(Cn1cc(-c2ccccc2)nc1SCc1ccccc1)c1ccccc1	-0.5	-0.64
O=C1c2ccccc2C(=O)N1COc1ccc(F)cc1Br	0	nt
O=C(COc1ccc(Oc2ccccc2)cc1)NCc1ccccc1	0.8	0.52

More entries.
SMILES	AID504770	Ba CapD inh
CC(OC(=O)c1ccc2ccccc2n1)C(=O)c1ccccc1 (centres undefined)	-0.75	3
O=C(c1cc2ccccc2oc1=O)N1CCN(Cc2ccc(Cl)cc2)CC1	-0.4	0.49
CCOC(=O)C1=C(C)N=c2s/c(=C\c3ccc(N4CCCCC4)o3)c(=O)n2C1c1cc(OC)ccc1OC (centres undefined)	nt	0.41
C=CCn1c(CNS(=O)(=O)c2ccc(Cl)cc2)nnc1SC	nt	-0.18
S=C(Nc1ccccc1)Nc1ccccc1-c1nc2ccccc2[nH]1	2.7	0.67
O=C1CCC(C(=O)OCC(=O)Nc2ccc(F)cc2)=NN1	-0.35	nt
Cc1nn(-c2nc3ccccc3[nH]2)c(N)c1-c1ccccc1	1.5	nt
O=C(CN1C(=O)COc2ccccc21)Nc1cccnc1	-0.3	0.9
CC(=O)N1CCC(N(C2CC2)S(=O)(=O)c2ccc(NS(=O)(=O)c3ccc(Cl)cc3)cc2)CC1	nt	-0.23
COc1ccc(N2C(=O)c3ccccc3NC2c2ccc(OC)c(COc3ccc(NC(C)=O)cc3)c2)cc1 (centres undefined)	nt	18
O=C(NCCc1c[nH]c2ccc(Cl)cc12)OCc1cccc([N+](=O)[O-])c1	nt	-0.015
CC1(C)Cc2cccc(OCC(=O)NCC(F)(F)F)c2O1	-0.05	nt
O=C(Oc1ccc2c(c1)OCO2)c1ccc(CS(=O)(=O)c2ccccc2)o1	0.15	nt
CC(C)C(=O)c1cn(CC(=O)N2CCCC2)c2ccccc12	-0.1	nt
Cc1ccccc1-n1c(CSC(=N)N)nc2ccccc2c1=O	-0.95	18
Cc1cc(C)n2ncc(/C(N)=N/OC(=O)Nc3ccccc3)c2n1	-0.75	0.26
COC(=O)Nc1sc2c(c1C(=O)OC)CCC2	0.65	0.015
O=C1c2ccccc2C(=O)c2c1oc1c3c(ccc21)OCN(C1CCCC1)C3	-0.4	nt
Cc1cc(Cl)ccc1NC(=O)/C(=C/c1ccc2c(c1)OCO2)NC(=O)c1ccccc1Br	nt	-0.1
C#CCOc1c(Br)cc(/C=c2\sc3nc4c(C)cc(C)cc4n3c2=O)cc1OC	nt	0.085
O=C(C1CCCN(S(=O)(=O)c2ccc(Br)s2)C1)N1CCN(Cc2ccc3c(c2)OCO3)CC1 (centres undefined)	-0.2	0.1
COC(=O)c1cc(C(O)(C(F)(F)F)C(F)(F)F)c(N)s1	1.2	nt
CCOCC(=O)Nc1nc2ccccc2s1	-0.75	nt
CSC(SC)=C(C#N)C(=O)c1cccc(C)c1	-0.8	-1.5
